NPYLR7 ag: mosquito NPYLR7 agonism; 270,000 compounds, 0.15% hits; activation, % at 10 µM; AID 1259423; HEK293T NPYLR7/Galpha15, GCaMP6s calcium fluorescence; in the data active = activation above about 40%;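 note: 0% = vehicle and 100% = reference agonist at the receptor; some compounds past the cut are filed as inactive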
NPYLR7 ag max-min: recorded beside NPYLR7 ag, whose call it bears; activation, %; measured here: Max-Min RFU normalised activation; some inactives read as strong as hits;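 span of the calcium signal over five minutes; 0% = vehicle and 100% = native peptide agonist; compound fluorescence can raise it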
An asterisk follows results filed as active; & = joins results of further samples. Only part of the results is shown; the hit share may differ from the screen's.

SMILES | NPYLR7 ag | NPYLR7 ag max-min
NC1CCC(C2CC(=O)Nc3c2cnn3-c2ccccc2)CC1 (stereo unspecified) | 8.0 | 3.4
O=C(CC1(O)CCCCC1)NCCc1ccc2ccccc2c1 | -5.2 | 283.9
CCOCCCn1c(SCc2ccc(C(=O)OC)cc2OC)nc2cc(S(=O)(=O)N3CCCC(C)C3)ccc21 (stereo unspecified) | 27.5 | 19.3
Cc1nc(CSCC(=O)O)cs1 | 4.4 | 3.4
NS(=O)(=O)c1cc(C(=O)Nc2cccc(OC3CCCC3)c2)cs1 | 4.9 | 3.5
CCOc1ccc(N2CCN(C(=O)Cc3ccccc3)C(C)C2=O)cc1 (stereo unspecified) | 1.9 | 12.5
Cc1ccc(-n2ncc3c(C(C)C)nn(CC(=O)N4CCOCC4)c(=O)c32)cc1C | 6.3 | 4.3
COCC1(NC(=O)C2CCCCn3nnnc32)CCCC1 (stereo unspecified) | 1.7 | 35.3
CSc1ncccc1C(=O)N1CCCC(Nc2ccc3c(c2)OCO3)C1 (stereo unspecified) | -2.4 | -2.7
O=C(c1ccc(Oc2ccccc2)cc1)C1CCCN(C(=O)c2ccc3nccnc3c2)C1 (stereo unspecified) | 2.7 | 1.1
C/C(CC(=O)Nc1ccccc1C(F)(F)F)=N/NC(=O)CC#N | -3.5 | 33.1
O=C1NC(=S)N/C1=C/c1ccc(OCc2ccc(Cl)cc2Cl)cc1 | -11.7 | -15.8
COc1ccc2oc(=O)c(C(=O)Nc3cc(Cl)ccc3OC)cc2c1 | -9.8 | -15.7
O=C(NCC(c1ccccn1)N1CCOCC1)c1cn(-c2ccccc2)nn1 (stereo unspecified) | 3.9 | -0.2
CS(=O)(=O)NCc1ccc(C(=O)NCC#Cc2ccccc2)o1 | 1.3 | 1.1
Cc1cc(C)n(-c2ccc(C(=O)NCCc3c[nH]c4ccccc34)cc2)n1 | 14.6 | 4.8
CN(C)S(=O)(=O)c1cccc(C(=O)NCC2CCCCC2)c1 | 4.3 | 2.2
COc1ccc(S(=O)(=O)NCCc2nnc3ccc(SCC(N)=O)nn23)cc1 | 5.1 | -5.3
CCOC(=O)CN1C(=O)CSC1=CC#N | 2.7 | 10.3
Cc1csc2nc(CSc3nnc(-c4ccco4)n3C)cc(=O)n12 | -4.5 | -4.8
COC(=O)C1=C(C)NC2=C(C(=O)CC(C)(C)C2)C1c1cccs1 (stereo unspecified) | 2.6 | 1.4
COc1cc2c(cc1O)C(SC)=NC(C)(C)C2 | 4.7 | -0.2
COc1ccc(C(C)NC(=O)N2CCC(Nc3ccc(C)cc3)CC2)c(OC)c1 (stereo unspecified) | 8.5 | 1.1
O=S(=O)(NCc1ccccc1Cl)c1ccc(Cl)c(Cl)c1 | -3.7 | -10.6
Cc1cc(C=CC(=O)Nc2ccc3[nH]c(=O)[nH]c3c2)c(C)n1C1CCCCC1 | 0.4 | 1.1
(cont.)
SMILES | NPYLR7 ag | NPYLR7 ag max-min
O=C(CN1C(=O)c2ccc([N+](=O)[O-])cc2C1=O)Nc1ccc(F)cc1 | 5.0 | 2.8
COC(=O)/C=C/c1ccc(OS(=O)(=O)c2cc(Cl)ccc2Cl)cc1 | 7.3 | 5.6
COc1cc(-c2ccnc(N3CCN(C(=O)C(C)(C)OC(C)=O)CC3)n2)cc(OC)c1OC | 10.3 | 8.9
CCC1CN(Cc2ccnn2-c2ccccc2)CCN1C(C)C (stereo unspecified) | -4.1 | -14.3
Cc1csc(CNC(=O)Nc2cccc(-c3noc(=O)[nH]3)c2)n1 | 1.6 | 66.0
COc1ccc(S(=O)(=O)NCCNc2cc(-n3ccnc3C)nc(C)n2)cc1Cl | -12.0 | -17.9
COCCOC(=O)C1=C(C)N(C)C(=S)NC1c1cccc(NC(=O)Nc2cc(OC)cc(OC)c2)c1 (stereo unspecified) | -0.9 | 7.5
CCN(CC)C(=O)[C@@H]1C[C@H](N)CN1C(=O)c1ccc(=O)[nH]c1 | 0.0&6.6 | -1.6&0.2
Cc1ccc(Cc2nsc(N(CCC(=O)N3CCN(Cc4ccc5c(c4)OCO5)CC3)Cc3ccco3)n2)cc1 | -9.6 | -18.0
Nc1cc(N2C[C@H]3CC=CC[C@H]3C2)nc(N2CCOCC2)n1 | 1.5 | -2.6
CSc1ccc(OC(C)C(=O)NC2CCCC2n2ccnc2)cc1 (stereo unspecified) | 0.2 | -0.9
CCCCN(C)c1c(C)nc2ccc(C(=O)NCCN3CCNC3=O)cn12 | 8.2 | 2.7
CC(CCc1ccc(O)cc1)NC1CCN(S(C)(=O)=O)CC1 (stereo unspecified) | -2.5 | 0.6
CC(C)(C)C(=O)CN | -2.2 | -4.8
COCCCN(CC(=O)N(CCc1ccc(OC)c(OC)c1)Cc1sccc1C)S(=O)(=O)c1cc(Cl)ccc1Cl | -10.8 | -4.1
COc1cccc(C2SCCN2C(=O)Nc2cc(C(F)(F)F)cc(C(F)(F)F)c2)c1OC (stereo unspecified) | 0.9 | 12.9
C=C(C)Cn1c(=O)c2c(nc3n(-c4ccccc4)c(C)c(C)n23)n(C)c1=O | -3.1 | -4.8
O=C(Nc1ncccn1)c1ccc(S(=O)(=O)N2CCOCC2)o1 | -6.1 | -3.4
O=C1CCCN1c1ccc(S(=O)(=O)NC2CCCc3occc32)cc1 (stereo unspecified) | 1.1 | 0.3
Cc1ccc(-c2cnc(C(O)c3cccc(C)c3C)[nH]2)cc1 (stereo unspecified) | 17.0 | 12.1
CCOc1ccccc1Oc1cncnc1-c1ccc(OC)cc1O | 2.7 | 2.4
COC(=O)c1ccc(CNC(=O)COc2ccc(C(F)(F)F)cc2)cc1 | -1.8 | -5.3
COc1cc(C=c2sc(=CC(=O)c3ccco3)[nH]c2=O)cc(Br)c1O | 27.1 | 25.1
CCCCC1CC(CSc2ncn[nH]2)OC1=O (stereo unspecified) | 5.2 | 3.3
O=C1OC(/C=C/c2ccc([N+](=O)[O-])cc2)=NC/1=C\c1c(F)cccc1Cl | -4.0 | -9.8

A few values from above.
For NPYLR7 ag max-min, COc1cc(C=c2sc(=CC(=O)c3ccco3)[nH]c2=O)cc(Br)c1O shows 25.1
For NPYLR7 ag max-min, Cc1csc(CNC(=O)Nc2cccc(-c3noc(=O)[nH]3)c2)n1 shows 66.0
For NPYLR7 ag max-min, Nc1cc(N2C[C@H]3CC=CC[C@H]3C2)nc(N2CCOCC2)n1 shows -2.6
For NPYLR7 ag max-min, COc1cc(-c2ccnc(N3CCN(C(=O)C(C)(C)OC(C)=O)CC3)n2)cc(OC)c1OC shows 8.9
For NPYLR7 ag, COC(=O)c1ccc(CNC(=O)COc2ccc(C(F)(F)F)cc2)cc1 shows -1.8
For NPYLR7 ag, COC(=O)/C=C/c1ccc(OS(=O)(=O)c2cc(Cl)ccc2Cl)cc1 shows 7.3
For NPYLR7 ag, CCN(CC)C(=O)[C@@H]1C[C@H](N)CN1C(=O)c1ccc(=O)[nH]c1 shows 0.0&6.6

Compounds shown so far that have a thiophene ring, fused or not, in the order listed:
SMILES | NPYLR7 ag | NPYLR7 ag max-min
NS(=O)(=O)c1cc(C(=O)Nc2cccc(OC3CCCC3)c2)cs1 | 4.9 | 3.5
COC(=O)C1=C(C)NC2=C(C(=O)CC(C)(C)C2)C1c1cccs1 (stereo unspecified) | 2.6 | 1.4
COCCCN(CC(=O)N(CCc1ccc(OC)c(OC)c1)Cc1sccc1C)S(=O)(=O)c1cc(Cl)ccc1Cl | -10.8 | -4.1

(cont.)
SMILES | NPYLR7 ag | NPYLR7 ag max-min
COC(=O)C(CNC(=O)c1nccn2ccnc12)CC(C)C (stereo unspecified) | 9.7 | 8.7
Cc1oc(C(=O)N2CCCCCC2CC(C)C)cc1S(N)(=O)=O (stereo unspecified) | 4.0 | 1.4
Cc1sc(NC(=O)C(C)(C)C)c(C(=O)O)c1C | 2.4&2.3 | 2.0&-1.4
O=C(Cn1c(=O)oc2ccccc21)N1CCN(c2ccccc2O)CC1 | -0.8 | 1.2
O=C(Nc1ccc(-c2noc(-c3ccccc3[N+](=O)[O-])n2)cc1)c1ccco1 | 2.0 | -0.9
CCCCC(=O)N1CCc2c(sc3ncnc(N)c23)C1 | -2.5 | -2.4
CC1CCCCN1CCCNC(=O)c1csc(CSc2nnc(-c3ccncc3)n2-c2cccc(C(F)(F)F)c2)n1 (stereo unspecified) | 7.9 | 16.3
COc1ccc(N2CCC(NC(=O)c3sccc3C)CC2)cc1 | -4.1 | -5.3
O=C(CC1CCC1)Nc1cc(Cl)ccc1Cl | 11.5 | 5.6
CCOC(=O)c1cc(-c2ccc(CC)cc2)n(C2CCN(C(=O)COC)CC2)n1 | 30.7 | 22.0
O=C(CN1CCC1c1ccccc1F)Nc1ccc(Br)cc1 (stereo unspecified) | -1.6 | -7.6
Cc1ccc(S(=O)(=O)N2CCN(c3ccccc3Cl)C(=O)C2C)cc1 (stereo unspecified) | -10.6 | -9.0
O=C1CCC(C(=O)N2CCN(c3ccccc3)CC2)CN1CCCN1CCOCC1 (stereo unspecified) | 3.4 | 2.4
CCOC(=O)C1CCN(Cn2nc(-c3ccccc3Cl)oc2=S)CC1 | -0.9 | -2.6
CCc1c(C)[nH][n+]2cnn(Cc3ccccc3)c2c1=O | 0.1 | -1.6
CC(=O)Nn1cnc2c(cnn2-c2ccc(C)cc2)c1=O | 30.8 | 23.4
C=CCNC(=O)C(NC(=O)c1ccc2c(c1)OCO2)C1CCN(C(=O)c2ccc(C(F)(F)F)cc2)CC1 (stereo unspecified) | 1.4 | 11.0
COc1ccc(C2=NC(CC(=O)N3CCc4cc(OC)c(OC)cc4C3c3c(F)cccc3Cl)C(C)O2)cc1 (stereo unspecified) | 20.1 | 13.7
COc1cn(CC(=O)Nc2ccc(C)cc2)c(CN2CCCCCC2)cc1=O | -0.5 | -4.5
CCc1nc2ncc3c(=O)n(CCCN(C)C)ccc3n2n1 | 0.3 | 4.9
O=C1NC(Nc2nc3ccccc3s2)(C(F)(F)F)C(=O)N1c1ccccc1 (stereo unspecified) | -0.6 | -0.7
CCC1CN(c2cnn(C)c(=O)c2Br)CCO1 (stereo unspecified) | 10.6 | 7.8
COc1ccc(C(=O)CSc2nnc(-c3ccco3)n2-c2cccc(C(F)(F)F)c2)cc1 | 16.5 | 18.7
COC(=O)Cc1[nH]nc2c1C(C1C=CCCC1)C(C#N)C(=N)O2 (stereo unspecified) | 2.7 | 0.7
OCC(O)C(O)C(O)c1cnn(-c2ccccc2)n1 (stereo unspecified) | 5.8&2.2 | 5.3&-1.2

Entries above containing a COOH group:
SMILES | NPYLR7 ag | NPYLR7 ag max-min
Cc1nc(CSCC(=O)O)cs1 | 4.4 | 3.4
Cc1sc(NC(=O)C(C)(C)C)c(C(=O)O)c1C | 2.4&2.3 | 2.0&-1.4

Other entries follow.
SMILES | NPYLR7 ag | NPYLR7 ag max-min
CCCNc1nc2ccccn2c(=O)c1C=C1SC(=S)N(CC2CCCO2)C1=O (stereo unspecified) | -1.4 | -1.8
COc1ccc(C2c3c(n(C)c(=O)n(C)c3=O)N=C3c4ccccc4C(=O)C32)cc1OC (stereo unspecified) | 17.7 | 14.5
CCNc1nnc(SCc2ccc([N+](=O)[O-])cc2)s1 | -4.4 | -4.5
Cc1ccc(Cl)c(C(=O)NC2CCCN(C(=O)C3CC3)C2)c1 (stereo unspecified) | 19.0 | 6.4
CCCn1c(N)c(C(=O)CN2CCCc3cc(C)ccc32)c(=O)[nH]c1=O | 1.4 | 0.4
CC1CN(C(=O)c2ccc(CNC(=O)C3=C(Cl)CCCC3)cc2)CC(C)O1 (stereo unspecified) | 9.6 | 7.4
CN(C(=O)c1cccs1)C(Cc1ccccc1)C1CCN(C(=O)C2=CCCC2)CC1 (stereo unspecified) | 14.7 | 3.5
CSCCSc1nnc(Nc2ccc(C(C)C)cc2)s1 | 3.0 | 6.5
COc1ccc(OCCn2c(C(C)NC(=O)c3ccco3)nc3ccccc32)cc1 (stereo unspecified) | 1.9 | 7.8
CCN(CC(=O)Nc1ccc(F)c(F)c1)CC(=O)Nc1ccccc1OC | -3.1 | -4.3
COC(=O)c1sccc1NC(=O)c1ccc(COc2cc(Cl)ccc2Cl)o1 | 7.6 | 6.6
CCC(=O)c1cc2c(cc1NC(=O)c1ccccc1)OCCO2 | -6.2 | -8.9
CCc1nc2ccc(C(=O)Nc3cccc(OC)c3)cn2c1N(CC)C(=O)NCCc1ccccc1 | -2.7 | -8.6
CN(C(=O)CCCNC(=O)C1CC1)c1cc(C2CCCCC2)[nH]n1 | 3.9 | 2.1
O=C(Nc1ccc2c(c1)OCO2)N(CC1CCCCC1)C1CC1 | -0.3 | 2.9
CCOC(=O)[C@H]1C[C@]2(CCCCNC2=O)N(C(=O)c2cccc(C#N)c2)[C@H]1c1ccccc1 | 6.2 | 16.3
CCOc1ccc(NC(=O)N2CCC3(CC2)OCCO3)cc1 | -6.6 | -13.7
COc1ccc(CN2CCCC2)cc1Oc1ccc(CO)cc1 | 18.0 | 25.8
COc1ccc(C(=O)N2CCN(c3cc(OC)cc(OC)c3)C(=O)C2C)cc1 (stereo unspecified) | 16.6 | 33.9
COc1ccc(OC)c(C2SCCN2C(=O)Nc2ccccc2F)c1 (stereo unspecified) | 3.6 | -2.8
O=C(Nc1nc(C2CC2)cs1)C1COc2ccccc2C1 (stereo unspecified) | 4.6 | 2.7
Cc1ccc(NCCNS(=O)(=O)c2ccccc2Cl)nn1 | -15.3 | -25.0
OC(COCc1ccccc1)CN(Cc1ccccc1)Cc1cccs1 (stereo unspecified) | 0.2 | 11.4
CCC1(C)NC(=O)N(/N=C\C2=Cc3cc(Cl)cc(Cl)c3OC2)C1=O (stereo unspecified) | -0.5 | 1.9
COCc1cc(C[C@H]2CNCC[C@H]2CC(=O)Nc2nccs2)no1 | -6.5 | -15.0
Cc1cccnc1CC(C)N(C)C(=O)c1ccoc1C (stereo unspecified) | -0.8 | -1.8
COc1ccc(-n2nnc3c(=O)n(CC(=O)NCc4ccc(F)cc4)cnc32)cc1 | 8.9 | 7.1

Pulled one by one from above, 2 records:
SMILES | NPYLR7 ag | NPYLR7 ag max-min
Cc1oc(C(=O)N2CCCCCC2CC(C)C)cc1S(N)(=O)=O (stereo unspecified) | 4.0 | 1.4
CCC1(C)NC(=O)N(/N=C\C2=Cc3cc(Cl)cc(Cl)c3OC2)C1=O (stereo unspecified) | -0.5 | 1.9

Screens (PubChem)
